Screening data (PubChem BioAssay)
KCNQ2 block: KCNQ2 potassium channel inhibitors, primary screen, cell-based, CHO-K1, FluxOR thallium flux, B-score (AID 2156). 20 min; active compounds read low; only compounds with negative scores are shown here; some inactives read as strong as hits. O88943. 310,000 tested, 1.1% active. B-score at 10 µM;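 active means fluorescence ratio B-score at most minus 3 library SDs, with starting brightness B-score within 2 library SDs, cut at about -5.5 in these data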
Target sequence (O88943 whole entry, looked up): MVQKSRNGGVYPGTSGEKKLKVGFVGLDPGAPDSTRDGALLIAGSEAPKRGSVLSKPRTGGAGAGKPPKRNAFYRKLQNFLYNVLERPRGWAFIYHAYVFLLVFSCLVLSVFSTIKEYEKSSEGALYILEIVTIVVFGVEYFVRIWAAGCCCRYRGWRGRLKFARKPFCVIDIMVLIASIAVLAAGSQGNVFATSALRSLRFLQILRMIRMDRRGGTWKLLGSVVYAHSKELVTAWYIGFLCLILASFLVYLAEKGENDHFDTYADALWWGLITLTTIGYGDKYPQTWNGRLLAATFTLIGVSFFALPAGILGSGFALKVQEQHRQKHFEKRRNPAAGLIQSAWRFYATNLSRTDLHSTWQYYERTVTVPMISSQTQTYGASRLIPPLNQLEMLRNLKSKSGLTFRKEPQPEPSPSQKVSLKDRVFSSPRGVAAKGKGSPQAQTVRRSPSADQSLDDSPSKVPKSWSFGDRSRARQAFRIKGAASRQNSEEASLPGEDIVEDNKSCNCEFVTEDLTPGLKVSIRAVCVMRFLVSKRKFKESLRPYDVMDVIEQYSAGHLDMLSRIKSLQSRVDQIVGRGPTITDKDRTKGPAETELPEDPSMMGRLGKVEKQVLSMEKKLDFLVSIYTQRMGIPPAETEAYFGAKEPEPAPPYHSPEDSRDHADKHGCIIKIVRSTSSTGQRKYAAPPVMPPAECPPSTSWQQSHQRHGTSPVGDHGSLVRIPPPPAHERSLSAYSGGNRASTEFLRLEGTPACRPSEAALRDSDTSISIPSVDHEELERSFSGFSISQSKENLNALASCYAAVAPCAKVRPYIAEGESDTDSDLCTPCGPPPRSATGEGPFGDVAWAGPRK
KCNQ2 block baseline: second read-out of KCNQ2 block, no call of its own (marks repeat the call); B-score; measured here: initial fluorescence intensity artifact check;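 brightness before thallium and not channel activity; 0 = typical well and far values either way flag optical interference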
* marks the source's active call; other numbers are inactive results; i = inactive.

Compound | KCNQ2 block | KCNQ2 block baseline
Cc1ccccc1NC(=O)CCN1C(=O)c2ccccc2C1=O | i | -1.08
O=C(Nc1ccc(F)cc1)c1ccc(Cn2cnnn2)cc1 | i | 1.78
CCCN1Cc2cccc(C(=O)NCc3ccccc3OC)c2C1=O | i | 1.12
Cc1ccc(C(=O)NC2CCS(=O)(=O)C2)cc1S(=O)(=O)N1CCCCCC1 (stereo not drawn) | i | -0.33
CC(C)n1cc(/C=C2/NC(=O)NC2=O)c2ccccc21 | i | 0.33
C#CCNC(=O)C1=C[C@@H](C2CCCCC2)C[C@@H](OCCCCO)O1 | i | 0.01
COc1ccc(-c2noc(CNC(=O)c3ccc4c(c3)OCO4)n2)cc1 | i | 0.2
CCCCNC(=O)c1onc(CSc2ccc(F)cc2)c1C(=O)NCCCC | i | 1.57
c1cnc2ccc(C(c3nnnn3C3CCCCC3)N3CCN4CCCC4C3)cc2c1 (stereo not drawn) | i | -0.79
O=C(/C=C/c1ccco1)NCC1CCCO1 (stereo not drawn) | i | 0.01
O=C(NC1CCCc2ccccc21)C1CCN(S(=O)(=O)c2ccccc2)CC1 (stereo not drawn) | i | -2.02
O=C(Cc1ccc(-c2ccccc2)cc1)OCC(=O)N1CCCC1=O | i | -0.68
CN(C(=O)c1ccccc1C(=O)OCC(=O)NCc1cccs1)C1CCCCC1 | i | 0.3
CCN(CC)c1ccc(C(NC(C)=O)NC(C)=O)cc1 | i | 1.19
CC(C)Cn1c(SCC(=O)NCc2ccc(Cl)cc2)nnc1-c1cccc(S(=O)(=O)N2CCOCC2)c1 | i | 0.15

Continuation.
Compound | KCNQ2 block | KCNQ2 block baseline
CCCCCn1c(CN(C)Cc2ccccc2)nc2c1c(=O)n(C)c(=O)n2C | i | -0.79
CCOc1ccc(N2C(=O)C3C(c4ccccc4)=NN(c4ccccc4)C3C2=O)cc1 (stereo not drawn) | i | 0.8
CCOC(=O)C1C(c2ccc(O)cc2)NC(=O)NC1(O)C(F)(F)F (stereo not drawn) | i | 0.65
CCOC(=O)N1CCC(NC2CCCCCCC2)CC1 | i | -1.55
CC(C)c1cc(C(=O)O)c2ccccc2n1 | i | -1.54
O=C(O)C1=C[C@@H](c2ccccc2)C[C@@H](OCc2ccc(CO)cc2)O1 | i | -0.06
Cc1ccc(C)c(OCCC(=O)OC(C)C(=O)Nc2c(C)n(C)n(-c3ccccc3)c2=O)c1 (stereo not drawn) | i | -0.15
O=c1ccc(-c2ccc(S(=O)(=O)Nc3ccc(F)cc3)s2)n[nH]1 | i | 1.16
CCOC(=O)C1CCN(C(=O)c2ccc(Cl)c(NC3=NC4CS(=O)(=O)CC4S3)c2)CC1 (stereo not drawn) | i | 1.39
N/C(=N\OC(=O)c1ccc(=O)n(Cc2ccccc2)c1)c1ccccn1 | i | -0.01
CCOC(=O)C1(CC2CC2)CCN(Cc2ccc(O)c(Cl)c2)CC1 | i | 0.95
COc1ccc(CN(Cc2cccn2C)S(=O)(=O)c2cccc(C(F)(F)F)c2)cc1 | i | -2.28
CCOC(=O)Cc1cc(=O)n2[nH]cc(-c3ccc(Cl)cc3)c2n1 | i | 0.38
COc1ccc(OC)c(-c2csc(N(Cc3ccco3)C(=O)c3cccs3)n2)c1 | i | -0.16
COc1ccc(C2c3ccc4ccccc4c3Oc3ncn(Cc4ccco4)c(=N)c32)cc1OC (stereo not drawn) | i | -0.13

The listing continues:
Compound | KCNQ2 block | KCNQ2 block baseline
Cc1ccsc1/C=N/N1CCN(c2ccccc2)CC1 | i | 1.06
CC(C)N(C(=O)COC(=O)c1ccc(Cl)nc1)C(C)C | i | 0.52
Cc1cc(C(=O)NC(C)c2ccncc2)no1 (stereo not drawn) | i | -0.28
COc1ccccc1C(=O)NC(=O)Cn1nc(C)c([N+](=O)[O-])c1C | i | -1.68
N#CCCn1cc(/C=C2\NC(=S)N(c3ccccc3)C2=O)c(-c2ccc(F)cc2)n1 | i | -1.09
Cc1nn(-c2ccccc2)c(C)c1NC(=O)COC(=O)[C@@H](NC(=O)c1ccccc1)C(C)C | i | 2.89
CCn1c(=O)[nH]c2ccccc2c1=O | i | 0.33
O=C(NCc1ccccc1Cl)c1ccc2c(c1)SC1=NS(=O)(=O)CCN12 | i | -1.06
O=C(NCCCN1CCOCC1)c1ccc(Sc2ccc(Br)cc2)c([N+](=O)[O-])c1 | i | -0.04
Cc1cccc2c1N(CCOc1ccccc1)C(=O)C2=O | i | -0.11
COc1cccc(CCc2nnc(CCC(=O)N3CCCC3c3nccs3)o2)c1 (stereo not drawn) | i | -0.39
Cc1ccc(C)c(NC(=O)CN(C)C(=O)C2CCN(S(=O)(=O)c3ccc4c(c3)OCCO4)CC2)c1 | i | 0.34
CC(C)CCNC(=O)C(c1ccc(O)cc1)N(Cc1cccs1)C(=O)C1COc2ccccc2O1 (stereo not drawn) | i | 0.55
Cc1c(C(C)NC(=O)c2cc(COc3cccc4cnccc34)on2)cnn1C (stereo not drawn) | i | 1.67
O=C(Nc1cccc(Cl)c1)N1CCSc2cc(Cl)ccc21 | i | -0.62

Part of the list above, with the structure last.
KCNQ2 block | KCNQ2 block baseline | Molecule
i | 0.33 | CCn1c(=O)[nH]c2ccccc2c1=O
i | -1.06 | O=C(NCc1ccccc1Cl)c1ccc2c(c1)SC1=NS(=O)(=O)CCN12
i | -0.04 | O=C(NCCCN1CCOCC1)c1ccc(Sc2ccc(Br)cc2)c([N+](=O)[O-])c1
i | -0.11 | Cc1cccc2c1N(CCOc1ccccc1)C(=O)C2=O
i | -0.39 | COc1cccc(CCc2nnc(CCC(=O)N3CCCC3c3nccs3)o2)c1 (stereo not drawn)

Next section:
Compound | KCNQ2 block | KCNQ2 block baseline
C=CCNC(=S)Nc1ccc2nc(C)c(C)nc2c1 | i | 0.04
COC(=O)c1ccc(NC(=O)C(OC)c2ccccc2)cc1 (stereo not drawn) | i | 0.37
O=C(Nc1ccc(F)cc1)NC1CCN(Cc2ccccc2)CC1 | i | 0.74
COC(c1ccc(Cl)cc1)(c1ccc(Cl)cc1)C(Oc1nc(C)cc(C)n1)C(=O)O (stereo not drawn) | i | -1.18
COc1ccc(/C=C/C(=O)OCC(=O)Nc2ccc(Cl)cn2)cc1 | i | 0.11
CCn1c(C)nc2cc(-c3nnc(-c4c(-c5ccccc5)noc4C)o3)ccc21 | i | 0.94
CCO[C@@H]1OC(C(=O)O)=C[C@H](C2CCCCC2)[C@H]1CCCO | i | 0.25
Cc1noc(C)c1COC(=O)c1cccc(S(=O)(=O)N2CCOCC2)c1 | i | 0.05
CCOC(=O)c1[nH]c(C)c(C(=O)OCC(=O)N2CCc3ccccc32)c1C | i | 0.03
O=C(c1cnc2sccn2c1=O)N1CCc2ccccc2C1 | i | 0.45
COc1ccc(C(=S)N2CCOCC2)cc1OC(=O)c1ccccc1Cl | i | -2.03
Cn1nc(C(C)(C)C)cc1C(=O)Nc1nc2c(s1)C(=O)CC(C)(C)C2 | i | -0.01
Cc1ccsc1CNC(=O)c1c(-c2ccccc2)noc1C | i | 2.03
CCOC(=O)COc1ccc(C2CC(C)=NN2c2ccccc2)cc1 (stereo not drawn) | i | 0.58
O=C(CCCOc1ccccc1)N1CCN(c2ccc(F)cc2)CC1 | i | -0.53

New compounds follow:
Compound | KCNQ2 block | KCNQ2 block baseline
Cc1ccc(N(C(=O)C2CCC(=O)N2)C2(C(=O)NC3CCCCC3)CCCCC2)cc1 (stereo not drawn) | i | 0.4
CC1CCCCC1NC(=O)CCn1c(=O)sc2ccccc21 (stereo not drawn) | i | 0.23
C/C(=N\NC(=O)c1c(Cl)c(C)nn1C)c1ccc(NC(=O)COc2ccc(Cl)cc2C)cc1 | i | 1.56
Clc1ccc(Cn2nnc(-c3ccc(N4CCOCC4)cc3)n2)cc1 | i | -0.73
CCOc1nc(NC2CCCCC2)nc(NC(C)(C)C)n1 | i | 0.43
CCSC(C)CC1CC(=O)CC(=O)C1 (stereo not drawn) | i | 0.5
COc1ccc(C(=O)NC(=O)NC2(C(Cl)(Cl)Cl)OCCO2)cc1 | i | 0.58
CCOc1ccc(S(=O)(=O)Nc2cccnc2)cc1 | i | 1.35
CCCCNC(=O)COC(=O)c1ccc(SC)cc1OC | i | -0.7
c1ccc(-c2ncc3ccccn23)cc1 | i | -0.58
Cc1cccc(NC(=O)CSc2nc3ccccc3c3nc(CCc4c(C)n[nH]c4C)nn23)c1 | i | 0.28
CC(C)CN1C(=O)/C(=C(/C#N)C(=O)NC2CCCCC2)c2ccccc21 | i | -1.05
CC(C)n1c(O)c(N=Nc2ccccn2)c2ccccc21 | i | 0.35
COC1CCN(C(=O)CC2C(=O)NCCN2CC2CCCCC2)CC1 (stereo not drawn) | i | 1.7
CC(C)C[C@H](NC(=O)C1CCN(S(=O)(=O)c2ccccc2)CC1)C(=O)NCc1ccncc1 | i | -0.54

The list goes on:
Under each structure: KCNQ2 block, KCNQ2 block baseline
Cc1ccc(OCCCC(=O)Nc2ccc(S(=O)(=O)Nc3ccccn3)cc2)cc1
 : i, 0.09
O=C(COC(=O)c1cccs1)NCc1ccc2c(c1)OCO2
 : i, -0.45
CC(=O)N1c2c(ccc3ccccc23)C(C)CC12CCCCC2 (stereo not drawn)
 : i, 0.69
CCOC(=O)CC1C(=O)NCCN1S(=O)(=O)c1ccc(Cl)cc1 (stereo not drawn)
 : i, -0.46
Cc1cccc(CC2SC(N3CCN(c4ccccc4)CC3)=NC2=O)c1 (stereo not drawn)
 : i, -0.82
COc1cccc(OC)c1C(=O)N1CCN(Cc2ccc3c(c2)OCO3)CC1
 : i, -0.21
Cc1cccc(NC(=O)NNC(=O)c2ccc(C)c([N+](=O)[O-])c2)c1
 : i, 0.04
COc1ccc(NS(=O)(=O)c2cc(NC(=O)CCNC(C)=O)ccc2N2CCOCC2)cc1
 : i, -0.1
NC(=O)c1ccc(NC(=O)CCc2nc3ccccc3s2)cc1
 : i, -0.03
CC(NC(=O)/C=C/c1ccc(Br)cc1)c1ccc(Cl)cc1 (stereo not drawn)
 : i, 0.19
O=C(Nc1ccc(F)cc1F)Nc1ccc(F)cc1F
 : i, -2.35
O=[N+]([O-])c1nn(-c2ccc3c(c2)OCCO3)n(O)c1=NC1CCCCCC1
 : i, -0.05
Cc1ccc(F)cc1NCC(=O)Nc1ccc(Br)cc1
 : i, 1.92
CC(=O)N1CCN(c2nc(-c3cccs3)nc3ccccc23)CC1
 : i, -0.84
Cc1occc1-c1nnc(SCC(=O)NCC2CCCO2)n1C (stereo not drawn)
 : i, 0.96

Structural class, the entries above with a furan ring, fused or not
Under each structure: KCNQ2 block, KCNQ2 block baseline
O=C(/C=C/c1ccco1)NCC1CCCO1 (stereo not drawn)
 : i, 0.01
COc1ccc(OC)c(-c2csc(N(Cc3ccco3)C(=O)c3cccs3)n2)c1
 : i, -0.16
COc1ccc(C2c3ccc4ccccc4c3Oc3ncn(Cc4ccco4)c(=N)c32)cc1OC (stereo not drawn)
 : i, -0.13
Cc1occc1-c1nnc(SCC(=O)NCC2CCCO2)n1C (stereo not drawn)
 : i, 0.96

Later entries.
Under each structure: KCNQ2 block, KCNQ2 block baseline
COC(=O)C(C)Nc1cccc(Br)c1 (stereo not drawn)
 : i, -1.19
O=C(Nc1cc(Br)ccc1O)c1cc(-c2ccc3c(c2)OCO3)on1
 : i, -0.67
COc1cc2ccccc2cc1C(=O)OCC(=O)N(C)c1c(N)n(Cc2ccccc2)c(=O)[nH]c1=O
 : i, 0.06
CCCn1nnnc1NCc1ccc(CC)cc1
 : i, 1.18
O=C(Nc1ccc(O)cc1)C1CCCN1S(=O)(=O)c1ccc(F)cc1 (stereo not drawn)
 : i, 0.02
CC1=C(C(N)=O)C(c2ccc(Cl)cc2Cl)n2ncnc2N1 (stereo not drawn)
 : i, 0.05
COc1cc(CNn2nnnc2N)cc(Br)c1OCc1c(Cl)cccc1Cl
 : i, 1.07
Cc1ccsc1C(=O)OCC(=O)c1cc(C)n(CC2CCCO2)c1C (stereo not drawn)
 : i, -1.54
CCC(CC)C(=O)Nc1cccc(C(=O)Nc2ccc(OC)cc2[N+](=O)[O-])c1
 : i, 2.07
CC1(NC(=O)Cc2ccc(S(=O)(=O)N3CCOCC3)s2)CCS(=O)(=O)C1 (stereo not drawn)
 : i, -0.12
CCNC(=O)n1nccc1C(C)Oc1cccc(C(F)(F)F)c1 (stereo not drawn)
 : i, -1.48
Cc1csc(NC(=O)C(NC(=O)c2ccccc2F)C(C)C)n1 (stereo not drawn)
 : i, -0.14
CC(C)(Cc1ccc(O)cc1)NC(=O)c1ccccc1
 : i, -0.04
Cc1cc(C)n(-c2ncc3c(n2)N(C)CCOC3=O)n1
 : i, 0.49
Clc1c2c(nc3ccccc13)CCC2
 : i, 2.33

Next part
Under each structure: KCNQ2 block, KCNQ2 block baseline
O=C(c1ccc(Cl)c(S(=O)(=O)N2CCCCC2)c1)N1CCCCC1
 : i, -0.09
CCOc1ccc(CCNC(=O)c2cc(S(=O)(=O)N3CCOCC3)ccc2C)cc1OCC
 : i, -0.05
CC(=O)N1CCN(S(=O)(=O)c2cccc(C(=O)N(Cc3ccccc3)c3cccc(C)c3)c2)CC1
 : i, 3.83
COc1ccccc1CNC(=O)C1CCC(CNS(=O)(=O)c2ccc(C)cc2)CC1 (stereo not drawn)
 : i, 0.99
Cc1cc(Br)ccc1NC(=O)CNC(=O)c1ccc(-n2cncn2)c([N+](=O)[O-])c1
 : i, 0.93
CC(C)CCC(O)(CCC(C)C)C(=O)NN1CCCCC1
 : i, -1.4
O=C(O)Cc1ccc(NC(=S)NCc2ccco2)cc1
 : i, 0.02
Cc1cccc(C(=O)N2CCC(=O)N(C(COCc3cccc(C(F)(F)F)c3)Cc3ccccc3)CC2)c1 (stereo not drawn)
 : i, -0.04
CCn1c(/N=C/c2c[nH]c3ccccc23)nc2ccccc21
 : i, -1.9
Cc1cc(C(=O)NCC(C)C)c2ccccc2n1
 : i, 0.58

The list is partial; rates above refer to the full screens.
